# Assay outcomes (PubChem BioAssay)
# RE007 growth inh – less growth of the S. pombe RE007 Vpr strain; Potency, µM (series often up to 92.2 µM), for inactives: at the top dose activity change, negative = less growth; S. pombe RE007 Vpr strain, BacTiter-Glo ATP luminescence, 24 h; control for the full effect not named in the record; actives 0.21% (n = 360,000); active = well fitted falling curve with a large enough effect; inconclusive = small, poorly fitted or top-dose-only effect; inactive = no such curve, though single readings can be large or run the other way;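 further: on the % scale 0 is the no-effect control and ±100 the full control effect; nearly all actives have a fitted effect of over 50% in size; the assay follows cell death caused by Vpr and the record does not say whether a fall means rescue or toxicity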
#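 Fission yeast strain RE007, carrying one chromosomally integrated HIV-1 vpr copy, was seeded at OD 0.01 in PMG+AL medium with 23 nL pinned compound. After 24 h at 30 °C and 99% humidity, viability was read by BacTiter-Glo luminescence.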
# Cruzain inh noDet – blocks cruzain activity in detergent-free assay; purified cruzain, Z-FR-AMC fluorescence, no detergent; Potency, µM, inactives show max response, negative = inhibition, usual class: inhibitors; actives 2.3% (n = 200,000); AID 1476; active means well fitted curve in the direction sought with a large enough effect; inconclusive means small, poorly fitted or top-dose-only effect, or another doubt; inactive means no such curve, though single readings can be large; an effect the other way counts as inactive or inconclusive;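 further: plate controls were enzyme without inhibitor for no effect and buffer without enzyme for full effect; nearly all actives have a fitted effect of over 40% in size; top concentration of the series not given in the record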
# Target sequence (P25779 123-467 limits assumed): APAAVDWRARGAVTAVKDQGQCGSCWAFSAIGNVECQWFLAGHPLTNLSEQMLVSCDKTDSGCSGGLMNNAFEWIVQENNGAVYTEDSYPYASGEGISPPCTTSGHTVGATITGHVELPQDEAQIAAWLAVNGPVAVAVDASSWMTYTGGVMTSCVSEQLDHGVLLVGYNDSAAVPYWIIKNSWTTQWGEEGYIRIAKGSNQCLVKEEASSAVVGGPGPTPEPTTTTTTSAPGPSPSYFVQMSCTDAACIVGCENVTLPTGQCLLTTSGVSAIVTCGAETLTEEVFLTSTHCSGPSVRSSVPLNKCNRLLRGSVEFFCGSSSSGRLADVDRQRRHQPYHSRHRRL
#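 Purified cruzain at 1.5 nM, pre-incubated 15 min with compound at room temperature in 100 mM sodium acetate pH 5.5, 5 mM DTT, 0.00005% Triton X-100. Reaction started with 2 uM Z-FR-AMC; AMC fluorescence increase over 60 s gives rate.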
# StopGo reporter – FMDV 2A StopGo reporter, luciferase signal; actives 1.2% (n = 410,000); Potency, µM (titrated, usually from 57.9 µM), for the others: at the highest dose signal change, negative = less light; human cells with a luciferase reporter of 2A StopGo recoding; control for the full effect not named in the record; active = well fitted falling curve with a large enough effect; inconclusive = small, poorly fitted or top-dose-only effect; inactive = no such curve, though single readings can be large or run the other way; tested in HEK293T cells; further: on the % scale 0 is the no-effect control and ±100 the full control effect; nearly all actives have a fitted effect of over 45% in size; luciferase light after 4 h
# NS1 inh – inhibitors of influenza NS1 protein function. S. cerevisiae slowed by influenza A NS1, growth recovery by OD600. Potency, µM (highest dose often 46.1 µM), for inactives: at the top dose activity, positive = more growth. actives 0.4% (n = 270,000); further: actives are rising curves; nearly all actives have a fitted effect of over 50% in size
#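 In this qHTS, NS1 from influenza A is expressed in budding yeast, where it slows growth. Cells are switched from glucose to 2% galactose medium (pH 6.0, -URA), treated with compound, and growth recovery is read at OD600.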
# LASV entry inh – inhibitors of Lassa virus binding or cell entry; actives 1.2% (n = 300,000); Lassa virus pseudotype entry inhibition, cell reporter; control for the full effect not named in the record; Potency, µM (doses to about 37.9 µM), without a hit: top-dose activity change, negative = inhibition, most hits filed as inhibitors; active means well fitted inhibition curve with a large enough effect; inconclusive means small, poorly fitted or top-dose-only effect, or effect the other way; inactive means flat fitted curve, though single readings scatter; tested in HEK293 cells; further: on the % scale 0 is the no-effect control and ±100 the full control effect; nearly all actives have a fitted effect of over 50% in size; luciferase read-out
# MARV entry inh – Marburg virus entry inhibition | Marburg virus pseudotyped entry inhibition, cell reporter; control for the full effect not named in the record; about a third of the inactives were read at about 46 µM | Potency, µM (top dose mostly 37.8 µM), inactives show top-dose activity change, negative = inhibition, actives largely listed as inhibitors | actives 1.8% (n = 300,000) | AID 540276; active = well fitted inhibition curve with a large enough effect; inconclusive = small, poorly fitted or top-dose-only effect, or effect the other way; inactive = flat fitted curve, though single readings scatter; tested in HEK293 cells; about a fifth of its hits are not listed in these tables; further: on the % scale 0 is the no-effect control and ±100 the full control effect; luciferase read-out
# Cruzain inh Det – blocks cruzain activity in presence of Triton detergent. P25779. purified cruzain, Z-FR-AMC fluorescence, 0.01% Triton. Potency, µM, for the others: max response, negative = inhibition, most hits filed as inhibitors. actives 0.43% (n = 200,000). AID 1478; active means well fitted curve in the direction sought with a large enough effect; inconclusive means small, poorly fitted or top-dose-only effect, or another doubt; inactive means no such curve, though single readings can be large; an effect the other way counts as inactive or inconclusive;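 further: plate controls were neutral wells for no effect and buffer without enzyme for full effect; nearly all actives have a fitted effect of over 40% in size; top concentration of the series not given in the record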
#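 15 min RT preincubation of 1.5 nM cruzain with compound, then 2 uM Z-FR-AMC added; kinetic AMC fluorescence, 60 s delta. Triton X-100 0.01%, pH 5.5.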
# SARS PLpro yeast – blocks SARS-CoV papain-like protease in a yeast assay | S. cerevisiae expressing SARS-CoV PLpro, growth rescue; control for the full effect not named in the record | Potency, µM (titrated, usually from 32.9 µM), for the others: top-dose activity, positive = growth rescue | actives 0.19% (n = 330,000) | AID 485353; further: 0% is about no effect; nearly all actives have a fitted effect of over 55% in size; growth read by luminescence after 48 h
# An asterisk follows results filed as active; ? = inconclusive; . = not tested or not shown; & = joins results of further samples; [ ] = another dose, or the depositor's remark. Unless noted, the call rests on the fitted dose curve; in most records, active means well fitted rising curve with a large enough effect; inconclusive means small, poorly fitted or top-dose-only effect; inactive means no such curve, though single readings can be large or run the other way. Potency means the concentration at half of the fitted maximal effect.
Structure	RE007 growth inh	Cruzain inh noDet	StopGo reporter	NS1 inh	LASV entry inh	MARV entry inh	Cruzain inh Det	SARS PLpro yeast
C[C@H](NC(=O)Nc1cccc(Br)c1)C(=O)O	4.2%	.	1.9%	0.3%	?	0.8%[46.1 µM]	.	-0.5%
COc1ccc(CNc2ncnc3c2c(-c2ccccc2)cn3-c2ccc(C)c(Cl)c2)cc1	.	-8.0%	-27.4%	.	3.1%[46.1 µM]	.	0.8%	.
Cc1[nH]c(C)c2c(=O)[nH]ncc12	8.5%	.	-4.1%	-5.0%	19.7%[46.1 µM]	1.7%[46.1 µM]	.	-0.6%
Cc1ccc(C(=O)Nc2cccc(NC(=O)c3cccs3)c2)c(C)c1	3.4%	.	9.8%	-50.7%	.	.	.	-8.5%
Cc1ccc(CNC(=O)C2CC(c3ccccc3[N+](=O)[O-])=NO2)cc1 (configuration not stated)	-22.1%	-2.2%	19.9%	-18.0%	.	.	-1.4%	4.0%
COCCN1C(=O)C(=O)/C(=C(/O)c2cccc(OC)c2)C1c1ccc(C)o1 (configuration not stated)	-4.8%	-0.5%	17.6%	2.6%	13.5%	3.3%[46.1 µM]	-1.4%	0.6%
O=C(CN1C(=O)NC2(CCOc3ccccc32)C1=O)c1ccc(F)c(F)c1 (configuration not stated)	1.8%	.	?	.	28.0%	13.8%	.	1.9%
CCC1CN(C(=O)C2CCN(S(=O)(=O)c3c(C)noc3/C=C/c3ccccc3F)CC2)c2cc(C)ccc2O1 (configuration not stated)	.	?	-17.5%	.	-3.3%[46.1 µM]	.	-4.1%	.
COC(=O)C(Cc1ccccc1)NCC(=O)Nc1cccc(Cl)c1C (configuration not stated)	1.9%	.	-15.7%	-17.3%	.	.	.	0.6%
COc1ccc(C(CNC(=O)C(CCSC)NC(=O)c2ccccc2Cl)N2CCCCC2)cc1 (configuration not stated)	-20.2%	.	-1.6%	.	2.1%	?	.	-2.8%
O=C(NCc1ccc2c(c1)OCO2)c1ccc(NC(=O)C2CCCO2)cc1 (configuration not stated)	7.3%	-2.4%	0.0%	-5.0%	1.9%	?	5.0%	5.3%
Cc1cc(C)cc(C(=O)NC(=S)Nc2ccc(Cc3ccncc3)cc2)c1	11.4%	-2.9%	?	16.1%	?	?	-8.2%	-17.8%
COc1ccc(C)cc1NC(=O)N1CCC2(CC1)OCCO2	-4.7%	.	-0.3%	-0.6%	8.6%	?	.	0.7%
CC1CN(CCCCN2C(=O)c3ccccc3C2=O)CC(C)O1 (configuration not stated)	-5.5%	.	-10.1%	.	3.2%[46.1 µM]	9.0%[46.1 µM]	.	1.1%
CCn1nc(C(=O)NNC(=O)COc2ccccc2C)c2ccccc2c1=O	0.0%	2.6%	1.4%	13.0%	15.7%	?	0.0%	22.3%
O=c1[nH]nc(Cc2ccccc2)c2ccccc12	11.0%	-1.8%	-15.7%	-7.6%	-4.6%	12.9%	1.0%	-2.2%
Cc1cccc(N2CC(C(=O)Nc3ccc(S(=O)(=O)Nc4nccs4)cc3)CC2=O)c1C (configuration not stated)	19.4%	.	10.3%	-3.6%	.	0.0%[46.1 µM]	.	-0.1%
N#C/C(=C\c1ccc(OCc2ccccc2)cc1)C(=O)Nc1ccc(C(=O)O)cc1	-18.2%	.	19.9%	-56.0%	?	-10.7%	.	2.4%
CN(CCCNC(=O)C1CCN(S(=O)(=O)c2cccc3nsnc23)CC1)Cc1ccccc1	-19.7%	0.1%	-11.7%	-6.1%	2.5%	-6.8%&0.3%	-2.2%	-4.0%
O=C(C[n+]1ccccc1)N/N=C/c1ccccc1[N+](=O)[O-]	3.4%	.	-9.8%	2.7%	-1.8%	23.8%[46.1 µM]	.	-0.9%
CCCCN(C)C(=O)c1nc2ccccn2c1CN1CCN(C(=O)c2cccs2)CC1	7.3%	.	-15.0%	1.8%	5.4%	-7.5%[46.1 µM]	.	1.1%
CCOC(=O)N1CCN(Cc2nc3ccc([N+](=O)[O-])cc3c(=O)n2-c2ccc(OC)cc2OC)CC1	1.2%	.	-3.4%	-5.9%	-18.3%	11.5%[46.1 µM]	.	4.6%
Cc1ccccc1NC(=O)c1ccc(F)c(S(=O)(=O)NC2CCCC2)c1	.	6.6%	27.2%	.	-10.4%[46.1 µM]	.	-0.2%	.
Cc1occc1C(=O)Nc1cc(S(=O)(=O)N2CCOCC2)ccc1OC(C)C	1.0%	.	-2.8%	.	1.8%	7.2%	.	0.4%
O=C(CCNC(=O)c1ccc(Br)cc1)NC1CCCCCC1	-14.4%	.	-15.9%	.	2.0%	-8.6%	.	1.3%
O=C(CN1C(=O)NC2(CCCC2)C1=O)NNC(=O)c1ccccc1	10.9%	.	-4.8%	.	-2.0%[46.1 µM]	24.2%	.	-1.5%
COc1ccccc1Oc1ccccc1C(=O)O	-0.2%	-4.5%	18.5%	9.2%	?	2.2%	4.3%	-3.3%
CCCCn1c(/N=C/c2c[nH]c3ccccc23)nc2ccccc21	?	11.2%	.	-17.1%	?	-22.3%	-19.7%	-1.2%
NCCC1CN(C(=O)OCc2ccccc2)c2ccccc21 (configuration not stated)	-1.1%	.	6.8%	.	12.1%	5.5%	.	.
NNc1nc(-c2ccccc2)nc2sc3c(c12)CCCC3	-8.9%	?	-23.0%	2.8%	?	?	-2.2%	-33.6%
COc1ccc(CCn2c(O)c(C3=c4ccccc4=NC3=O)sc2=S)cc1OC	-18.1%	.	-2.0%	2.8%	.	.	.	-2.0%
O=C(COc1ccccc1)c1cn(CC(=O)N2CCCC2)c2ccccc12	9.5%	.	-23.4%	-3.6%	-3.8%[46.1 µM]	-10.1%[46.1 µM]	.	4.3%
COc1ccc(-c2cc(=O)n3[nH]cnc3n2)cc1	.	2.4%	8.1%	.	24.4%[46.1 µM]	.	-0.3%	.
Cc1ccccc1NC(=O)NCC1CCN(Cc2cccc(Cl)c2)CC1	0.9%	.	-19.6%	3.4%	.	.	.	-0.7%
OCC[C@@H]1C[C@@H](O)[C@H](O)[C@]2(OCCCc3ccccc32)O1	-1.4%	.	-1.2%	-4.6%	.	.	.	-2.5%
CCOCCCN(C)C1CCN(C(=O)c2oc3ccccc3c2NC(=O)Cc2ccc([N+](=O)[O-])cc2)CC1	14.9%	.	25.1%	6.4%	-4.3%[46.1 µM]	?	.	-3.0%
O=C(CCc1ccccn1)N1CCCC(N2CCN(c3cccc(C(F)(F)F)c3)CC2)C1 (configuration not stated)	-7.9%	.	-11.7%	5.1%	-18.6%[46.1 µM]	3.4%[46.1 µM]	.	-0.6%
CCOc1ccccc1N(CC(=O)NC1CCCCC1)C(=O)c1nsc(Cl)c1Cl	-15.4%	.	13.5%	-4.8%	?	?	.	-1.1%
COc1ccccc1CNS(=O)(=O)c1cc(C(=O)N(C)Cc2cccnc2)c(Cl)cc1Cl	14.8%	.	-24.0%	.	-7.7%	?	.	.
Cc1cccc(OC(=O)c2snnc2C)c1	.	-7.7%	-15.1%	.	6.3%[46.1 µM]	7.9%[46.1 µM]	-2.8%	.
COC(=O)Cn1c(=NC(=O)C(C)C)sc2c(C)cc(C)cc21	10.9%	-2.0%	-27.9%	10.3%	.	.	-9.1%	1.9%
O=C(CC1SC(N2CCCCC2)=NC1=O)Nc1cccc(C(F)(F)F)c1 (configuration not stated)	1.5%	21.0%	4.7%	14.2%	-1.1%	-10.3%	-0.2%	5.3%
CC(=C\c1ccco1)/C=C(\C#N)C(=O)NCCc1c[nH]c2ccccc12	17.5%	-10.6%	-21.5%	7.5%	-2.8%	?	-15.3%	10.3%
COc1ccc(CC(=O)NCC(=O)N/N=C/c2c[nH]c3ccccc23)cc1	7.0%	.	-7.4%	-9.3%	-9.4%	23.6%	.	-6.3%
COc1ccc(C(C)=O)cc1CC(=O)NCCCn1ccnc1	-12.3%	.	12.6%	0.6%	?	13.0%[46.1 µM]	.	-1.2%
CSCC[C@H](NC(=O)[C@H](Cc1ccccc1)n1c(=O)[nH]c2ccccc2c1=O)C(=O)N1CCC[C@H]1C(=O)O	1.8%	.	-22.2%	?	.	.	.	-1.5%
O=C(COC(=O)c1cccs1)c1ccccc1	?	-13.2%	7.1%	-4.7%	?	-4.3%	-0.6%	9.3%
O=C(C1=C[C@@H]2[C@H]3C(=O)N(c4ccccc4)C(=O)[C@H]3[C@@H](C(=O)c3ccc(Cl)cc3)N2C=C1)c1ccccc1	.	?	.	?	3.1%	-42.1%	-2.5%	-1.8%
CCn1nc(C)cc1C(=O)N1CCCC(C(=O)c2ccccc2SC)C1 (configuration not stated)	-9.6%	.	-21.8%	-3.7%	-17.0%[46.1 µM]	-2.2%[46.1 µM]	.	-2.5%
COc1ccc(OC)c(NS(=O)(=O)c2ccc(-c3coc(C)n3)cc2)c1	6.8%	.	-16.8%	-13.0%	.	.	.	1.7%
CCN1CCN(CCNC(=O)Nc2ccc([N+](=O)[O-])cc2)CC1	13.3%	.	-2.4%	-5.2%	-3.8%	0.3%[46.1 µM]	.	0.0%
N[C@@H](CCP(=O)(O)O)C(=O)O	.	?	0.5%	0.0%	.	.	1.5%&-2.6%	.
Cc1ccccc1C(=O)NCCCn1ccnc1	9.2%	.	-18.8%	-3.8%	-3.4%[46.1 µM]	0.1%[46.1 µM]	.	-1.2%
COc1ccccc1CNC(=O)c1cc(S(=O)(=O)N2CCCC(C)C2)cn1C (configuration not stated)	.	9.1%	-20.5%	.	?	.	-2.7%	.
COc1ccc(CCNC(=O)c2ccc(CS(=O)(=O)c3ccc(Cl)cc3)o2)cc1OC	9.0%	1.0%	15.8µM*	10.0%	25.9µM*	14.6µM*	1.1%	2.2%
Cc1ccc2c(c1)C1CN(C)CCC1N2CC(=O)N(C)c1ccccc1 (configuration not stated)	13.3%	6.1%	.	-1.5%	10.6%	6.4%	-0.3%	7.3%
COc1ccc(NC(=S)N2CCN(C/C=C/c3ccccc3)CC2)cc1	-4.8%	11.8%	15.4%	-12.1%	-6.0%[46.1 µM]	?	-4.1%	-9.8%
